D2 ag: activates the human D2 dopamine receptor; actives 0.084% (n = 360,000); DiscoveRx PathHunter D2 beta-arrestin, luminescence, 90 min; 100% = 57 uM dopamine signal; activation, % (test concentration not listed); in the data active = activation above about 40%; inconclusive = about 15% to 40%; inactive = below about 15%; also: compound concentration not given in the record; the text of the record calls up to 30% inactive
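Agonist mode: compounds alone added to overnight-plated D2 PathHunter cells for 90 min at 37 C, with 57 uM final dopamine (EC100) defining full response. Beta-arrestin recruitment detected by chemiluminescent reagent, read after 1 h at ambient temperature.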
Six1-Eya2 inh: blocks human Six1 binding to Eya2 | AlphaScreen GST-Six1/His-Eya2 binding, biochemical; active compounds read low; control for the full effect not named in the record | activity change, % (concentration not given with the values) | actives 0.56% (n = 360,000); in the data active = activity change below about -65%; inconclusive = about -30% to -65%; inactive = above about -30%; also: % is scaled to controls: 0 for no effect and ±100 for the full control effect
Target sequence (O00167 whole entry, looked up): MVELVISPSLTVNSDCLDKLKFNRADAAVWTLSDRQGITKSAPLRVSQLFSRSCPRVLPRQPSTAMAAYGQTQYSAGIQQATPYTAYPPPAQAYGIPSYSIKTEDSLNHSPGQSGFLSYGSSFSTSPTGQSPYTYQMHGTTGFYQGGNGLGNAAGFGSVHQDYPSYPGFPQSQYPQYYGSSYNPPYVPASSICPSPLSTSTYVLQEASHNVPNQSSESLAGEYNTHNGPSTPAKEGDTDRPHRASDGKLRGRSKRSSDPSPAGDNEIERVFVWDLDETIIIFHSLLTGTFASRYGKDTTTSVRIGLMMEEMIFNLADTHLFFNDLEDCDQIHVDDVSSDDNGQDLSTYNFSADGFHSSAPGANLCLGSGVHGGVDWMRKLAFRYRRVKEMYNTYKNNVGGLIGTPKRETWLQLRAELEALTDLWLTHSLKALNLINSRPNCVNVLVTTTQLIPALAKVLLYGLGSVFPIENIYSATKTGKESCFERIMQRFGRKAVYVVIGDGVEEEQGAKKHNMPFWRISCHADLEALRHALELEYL
Target sequence (Q15475 whole entry, looked up): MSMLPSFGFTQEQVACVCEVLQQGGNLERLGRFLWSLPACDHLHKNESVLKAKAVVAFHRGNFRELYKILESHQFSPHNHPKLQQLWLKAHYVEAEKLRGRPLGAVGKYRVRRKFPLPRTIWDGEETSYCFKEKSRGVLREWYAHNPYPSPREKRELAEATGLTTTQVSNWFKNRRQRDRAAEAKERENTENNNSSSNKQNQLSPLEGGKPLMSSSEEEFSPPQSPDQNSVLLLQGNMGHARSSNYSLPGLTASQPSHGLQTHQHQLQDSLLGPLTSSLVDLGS
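GST-Six1 + His-Eya2 (5X stock: 250/500 nM); Tris pH 8.0, 300 mM NaCl, 0.05% BSA, 0.02% Tween 20; GSH donor/Ni acceptor beads; 1 h 37 °C dark; AlphaScreen readout.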
CtBP-E1A inh: blocks the CtBP interaction with E1A; AlphaScreen GST-E1A/His-CtBP binding, 1536-well; active compounds read low; control for the full effect not named in the record; activity change, % (no concentration beside the values); actives 0.49% (n = 340,000); in the data active means activity change below about -65%; inconclusive means about -30% to -65%; inactive means above about -30%; also: % is scaled to controls: 0 for no effect and ±100 for the full control effect
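In 5 uL wells, 23 nL compound meets equimolar GST-E1A and His-CtBP (5X stock 125 nM each) for 2 h, 37 °C. Beads (5X, 50 ug/mL) then 1 h, 37 °C, dark.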
gsp agonist: agonists of gsp mutant (McCune-Albright syndrome). Potency, µM (series often up to 76.9 µM), for inactives: top-dose activation (cAMP increase), actives largely listed as activators. gsp mutant cells, cAMP HTRF, 30 min; control for the full effect not named in the record. actives 0.13% (n = 340,000); active = well fitted activation curve with a large enough effect; inconclusive = small, poorly fitted or top-dose-only effect, or another doubt; inactive = no such curve, though single readings can be large or run the other way; cell line not stated here;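 also: phosphodiesterase inhibitor Ro 20-1724 added with compounds to block cAMP breakdown; potency is read from the fitted curve at half-maximal effect; nearly all actives have a fitted effect of over 60% in size; about a fifth of the inactives were tested at one dose only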
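Cells in DMEM/10% FBS with G418 were pretreated with compounds in DMSO plus […] (300 uM stock) for 30 min at 37C. cAMP was measured by HTRF (cAMP-d2 plus anti-cAMP antibody-K) after 30 min at room temperature.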
gsp antag: gsp mutant antagonism | Potency, µM (top dose mostly 76.9 µM), without a hit: at the top dose activity change, negative = inhibition, actives largely listed as inhibitors | actives 0.4% (n = 340,000) | gsp-mutant cells, cAMP HTRF, 30 min; control for the full effect not named in the record; active = falling curve of any shape with a large fitted effect; inconclusive = falling curve, mostly with a smaller effect; inactive = flat or rising curve; cell line not stated here;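 also: intracellular cAMP measured with PDE inhibitor Ro 20-1724 present during compound exposure; potency is read from the fitted curve at half-maximal effect; % is scaled to controls: 0 for no effect and ±100 for the full control effect; nearly all actives have a fitted effect of over 65% in size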
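HTRF cAMP read-out (cAMP-d2 plus anti-cAMP antibody-K in lysis buffer, 30 min RT). Before lysis, cells are exposed to compounds with […] for 30 min at 37C in DPBS containing Ca/Mg, BSA and Tween 20.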
D2 PAM: human D2 receptor positive allosteric modulation; P14416; DiscoveRx D2 beta-arrestin cells, luminescence, 90 min; 100% = 57 uM dopamine signal; potentiation, % (no concentration beside the values); actives 0.23% (n = 360,000); AID 624464; active = potentiation of 50% or more; inconclusive = 30% to 50%; inactive = 30% or less;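 also: compound concentration not given in the record; tested on top of an EC20 dose of dopamine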
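PathHunter beta-arrestin assay in DiscoveRx D2 cells. Compounds were added with an EC20 of dopamine (50 nM final) for 90 min at 37 deg C. Luminescence was read 1 h after detection reagent, with 57 uM dopamine as the EC100 control.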
Active calls of the source: *; ? = inconclusive; · = not tested or not shown; [ ] = dose if it differs, or a comment.

SMILES	D2 ag	Six1-Eya2 inh	CtBP-E1A inh	gsp agonist	gsp antag	D2 PAM
Cc1cc2c(cc1S(=O)(=O)CCC(=O)N(C)C1CCCCC1)OCC(=O)N2	-8.7	3	1	1%	0%	-3
CC1(C)C2CC[C@]3(C)C(CC=C4[C@@H]5C[C@](C)(CO)CC[C@]5(C(=O)O)CC[C@]43C)[C@@]2(C)CC[C@@H]1O (stereo partly drawn)	-5.2	3	7	·	-15%	-26
CCOC(=O)NCc1ccc2[nH]c(C)cc2c1	-5.6	-9	-28	-1%	7%	-2
CC1CN(S(=O)(=O)c2cccc(C(=O)OCC(=O)c3cccs3)c2)CC(C)O1 (stereo not drawn)	-3.5	-6	3	-20%	-10%	-5
CC1=C(C#N)C(c2cccnc2)C2=C(CC(c3ccc(Cl)cc3)CC2=O)N1 (stereo not drawn)	-0.4	3	8	12%	-15%	-11
COc1ccc(OC)c(N=c2ssnc2Cl)c1	-2.8	-2	-9	-5%	-5%	-3
COc1ccc(-c2cnc3c(NC(C)=O)cc(-c4cccc(C(=O)N(C)C)c4)cn23)cc1OC	7.2	-6	-16	·	·	-8
CCOC(=O)C(CC)n1cnc2c(cnn2-c2ccc(Cl)cc2)c1=O (stereo not drawn)	-5.0	-4	2	1%	?	-9
CCCCn1nc2cc(C(=O)NCc3ccccc3OC)ccc2c1OCC	-0.1	9	·	8%	8%	-4
Cc1[nH]cnc1CSCc1ccc(Cl)cc1	-4.5	1	-2	24%	3%	2
O=C(Nc1ccccc1)Nc1ccc(F)cc1F	-1.4	25	·	6%	17%	-6
CC(=O)COc1cccc2ccc(/C=C/c3ccc(Br)s3)nc12	1.6	16	·	15%	-12%	-22
O=C(CN1CCCc2ccccc21)N/N=C/c1ccccc1O	-2.2	-24	?	-7%	-9%	-23
Cc1cc(C)c2c(=O)n(CC(=O)NC3CCCC3)sc2n1	-5.0	6	1	?	20%	-2
CCOCCCNC(=O)c1ccc2c(c1)N=C(CC)c1cc(Br)ccc1S2	-1.4	-14	-4	-27%[15.4 µM]	33%	-2
Cc1ccnc(NS(=O)(=O)c2ccc(N3C(=O)c4c(Cl)c(Cl)c(Cl)c(Cl)c4C3=O)cc2)n1	-3.6	-19	-3	-7%[15.4 µM]	-14%	-6
OC[C@@H]1CN(Cc2cccnc2)C[C@H](n2cnc3c(NC4CCCC4)ncnc32)O1	-3.0	-3	1	·	·	-3
NS(=O)(=O)c1ccc(-c2ccc(C=NC3CCS(=O)(=O)C3)o2)cc1 (stereo not drawn)	-1.4	2	-1	28%	-1%	7
O=C(NCCN1C(=O)S/C(=C\c2ccccc2)C1=O)c1cc(S(=O)(=O)N2CCOCC2)c(Cl)cc1Cl	3.3	1	-3	-18%	?	26
COc1ccc(N2CCN(C(CNS(=O)(=O)c3ccc(C)cc3)c3ccccc3)CC2)cc1 (stereo not drawn)	-2.0	?	0	-11%	-14%	-21
Nc1nc(SCc2ccccc2Cl)nc2nc3c(cc12)CCCC3	0.3	0	4	-18%	-3%	-11
Cc1ccc(S(=O)(=O)N2CCOCC2)cc1NC(=O)CN1C(=O)NC2(CCCC2)C1=O	-3.9	-8	6	12%[15.4 µM]	-2%	-2
CCCN1CCN(CCCNC(=O)Cn2nc(-c3ccc(Cl)cc3)ccc2=O)CC1	-1.5	4	-9	24%[15.4 µM]	12%	-12
COc1ccc2c(c1)CC[C@@H]1[C@@H]2CC[C@]2(C)[C@@H](C(=O)O)C[C@@H]12	3.8	-4	·	-11%	-16%	5

Three records picked at random from those above, as already listed:
SMILES	D2 ag	Six1-Eya2 inh	CtBP-E1A inh	gsp agonist	gsp antag	D2 PAM
OC[C@@H]1CN(Cc2cccnc2)C[C@H](n2cnc3c(NC4CCCC4)ncnc32)O1	-3.0	-3	1	·	·	-3
CCCCn1nc2cc(C(=O)NCc3ccccc3OC)ccc2c1OCC	-0.1	9	·	8%	8%	-4
CC1CN(S(=O)(=O)c2cccc(C(=O)OCC(=O)c3cccs3)c2)CC(C)O1 (stereo not drawn)	-3.5	-6	3	-20%	-10%	-5

More entries follow.
SMILES	D2 ag	Six1-Eya2 inh	CtBP-E1A inh	gsp agonist	gsp antag	D2 PAM
Cc1ccc(C(=O)NC(C#N)=C(Cl)Cl)cc1	-2.2	-1	-3	5%[15.4 µM]	0%	-4
COc1ccc(CCNC(=O)C2CCN(C(=O)c3ccc(Cl)cc3)CC2)cc1	11	2	1	-63%[inhibitor]	-10%	0
O=C(O)c1ccc(Oc2ccc(S(=O)(=O)c3ccc(C(=O)O)c(C(=O)O)c3)cc2)cc1	-3.0	3	-11	23%	4%	-4
COc1ccc(C)cc1NC(=O)CSc1nnc(CC(=O)Nc2ccccc2F)n1C	-1.2	0	0	-8%[15.4 µM]	-1%	-10
CCCC(C(=O)NC(C)(C)C)N(Cc1ccc(F)cc1)C(=O)c1snc(C(N)=O)c1N (stereo not drawn)	-2.3	6	·	-59%[inhibitor]	2%	-11
CCCCCCc1cc2cc(C(=O)Nc3ccccc3)c(=O)oc2cc1O	-2.0	9	5	1%	-21%	-11
CN(CC(=O)N1CCCC1)S(=O)(=O)c1cccc(Cl)c1	-4.8	-3	-1	-7%	10%	-1
Cc1ccc(C(=O)OCC(=O)c2ccc[nH]2)s1	3.9	1	·	29%	5%	-11
CC1CCCC(C)N1C(=O)CSc1nnc(C2CCCCC2)o1 (stereo not drawn)	-4.8	0	3	22%	-27%	-17
CCOc1ccc(N2C(=O)CC(NCc3ccc(F)cc3)C2=O)cc1 (stereo not drawn)	1.8	9	3	3%	5%	8
O=C(CCCc1nc2ccccc2s1)NCc1cccnc1	0.0	2	·	?	3%	?
C/C(CC(=O)NC12CC3CC(CC(C3)C1)C2)=N\NC(=O)c1cnccn1	2.4	-13	7	-7%[15.4 µM]	13%	17

3 of the compounds above, bar-delimited:
Molecule | D2 ag | Six1-Eya2 inh | CtBP-E1A inh | gsp agonist | gsp antag | D2 PAM
Cc1ccc(C(=O)OCC(=O)c2ccc[nH]2)s1 | 3.9 | 1 | · | 29% | 5% | -11
CC1CCCC(C)N1C(=O)CSc1nnc(C2CCCCC2)o1 (stereo not drawn) | -4.8 | 0 | 3 | 22% | -27% | -17
CCOc1ccc(N2C(=O)CC(NCc3ccc(F)cc3)C2=O)cc1 (stereo not drawn) | 1.8 | 9 | 3 | 3% | 5% | 8

The list goes on.
SMILES	D2 ag	Six1-Eya2 inh	CtBP-E1A inh	gsp agonist	gsp antag	D2 PAM
O=C(NC1CCCCC1)C(c1ccccc1)N1CCc2ccccc21 (stereo not drawn)	-6.1	-20	-1	?	?	-2
CC1CCN(S(=O)(=O)c2cn(CC(=O)N3CCN(C)CC3)c(=O)c3ccccc23)CC1	-4.5	0	-3	?	-9%	-15
Cc1[nH]n(-c2ccccc2)c(=O)c1/C=N/NC(=O)COc1ccccc1[N+](=O)[O-]	-7.8	-79*	-88*	2%	-20%	-7
CCc1c(C)sc(NC(NC(C)=O)(C(=O)OC)C(F)(F)F)c1C#N (stereo not drawn)	-2.6	8	12	-2%	1%	-7
O=C(O)c1c(NC(=O)N2CCOCC2)sc2c1CCCC2	1.0	-2	6	-2%	3%	-1
Cc1ccc(NCc2nnc(SC(C)C(=O)N/N=C/c3ccc(C)o3)n2-c2ccccc2)cc1 (stereo not drawn)	-1.7	-3	-1	-18%	-1%	-9
OC[C@@H]1CN(CCN2CCOCC2)C[C@H](n2cnc3c(NCc4ccc(F)cc4)ncnc32)O1	0.9	1	-5	·	·	-16
Cc1ccc(N(CC(=O)NC(C)c2ccccc2)S(=O)(=O)c2c(C)n[nH]c2C)cc1 (stereo not drawn)	-0.6	-3	0	?	-5%	-5
Cn1cnnc1Sc1cc(N2CCN(S(=O)(=O)c3ccc4ccccc4c3)CC2)ccc1[N+](=O)[O-]	-5.9	-2	-28	-21%	-7%	-12
COc1ccc(OC)c2c1sc(=NC(=O)C1CC1)n2C	-5.5	-5	3	0%	?	6
Cc1ccnc(N2CCCC(C(=O)NCc3cccs3)C2)n1 (stereo not drawn)	-1.4	-1	6	-32%	1%	13
Clc1nc(-c2ccccc2)cc(-c2ccccc2)n1	0.3	39	18	-9%	-8%	-15
O=C(CSc1nnc2scc(-c3ccccc3)n12)Nc1ccc2c(c1)OCCO2	0.9	-3	-11	?	-11%	-10
O=S(=O)(Nc1ccc(Cl)nn1)c1ccccc1	0.5	-2	·	-6%	-2%	-16
CC(=O)Nc1cc(C(=O)OCC(=O)c2ccc(Cl)cc2Cl)ccc1C	-3.2	0	1	-45%[inhibitor]	-3%	-10
COc1cc(C)c(-c2cc(C(=O)O)c(C)o2)cc1C(C)C	-0.5	-15	-15	30%	-13%	-2
Cc1cc(/C=C2/SC(=S)N(c3cccc(Cl)c3)C2=O)c(C)n1-c1cccnc1	-3.4	?	-27	-24%	?	-23
CCCCNC(=O)COC(=O)CCC(=O)c1ccc(F)cc1	0.4	4	5	?	-4%	-3
Cc1ccc(C)n1CCN1CCN(C(=O)CSc2nc3ccccc3nc2N2CCOCC2)CC1	0.6	2	-1	33%	5%[15.4 µM]	13
CC(=O)N1CCc2c(sc(NC(=O)CCS(=O)(=O)c3ccc(C)cc3)c2C#N)C1	-2.5	28	0	-13%[15.4 µM]	-29%	-28
O=C(NCCc1ccccc1F)C1CC(=O)N(c2ccc3c(c2)OCCO3)C1 (stereo not drawn)	-2.3	1	6	?	·	-4
COc1ccccc1N1CCN(C(=O)CSc2nc3ncnc(N)c3[nH]2)CC1	-0.4	-6	-9	1%	-3%	-5
CCC(C)COC(c1ccccc1)(c1ccccc1)C(Oc1nc(C)cc(C)n1)C(=O)O (stereo not drawn)	8.8	4	-12	3%	8%	1
COc1ccc2[nH]c3c(=O)n(N)c(C)nc3c2c1	-2.8	-19	-15	0%	4%	-16
OCCOc1cccc(CN2CCC(CO)(CCOc3ccccc3)CC2)c1	-3.0	-1	·	-14%	-5%	-20
CCN(CC(=O)NCc1ccc(Cl)cc1)C(=O)CSc1ccc(F)cc1	-1.6	2	3	-15%	-4%	-15
CCCc1cc(=O)[nH]c(SCC(=O)OCc2ccccc2)n1	1.9	9	-7	-4%	-14%	2
CC(=O)Nc1ccc(OCC(O)Cn2ccnc2)cc1 (stereo not drawn)	2.9	1	·	-16%	7%	0
Cc1n[nH]c(C)c1CCC(=O)N/N=C/c1c(C)[nH]c2ccccc12	0.7	3	-3	-28%	5%	-4
CC(C)CCN1C(=O)c2ccc(C(=O)NCC3CCCO3)cc2C1=O (stereo not drawn)	-0.2	1	12	1%	-4%	-4

Filtered by structure: the entries above with bromine (two)
SMILES	D2 ag	Six1-Eya2 inh	CtBP-E1A inh	gsp agonist	gsp antag	D2 PAM
CC(=O)COc1cccc2ccc(/C=C/c3ccc(Br)s3)nc12	1.6	16	·	15%	-12%	-22
CCOCCCNC(=O)c1ccc2c(c1)N=C(CC)c1cc(Br)ccc1S2	-1.4	-14	-4	-27%[15.4 µM]	33%	-2

Assay outcomes from PubChem.
